Assay outcomes (PubChem BioAssay)
VDR inh – inhibitors of human vitamin D receptor | P11473 | VDR-SRC2-3 peptide fluorescence polarization, 2 h | Potency, µM, without a hit: max response, negative = inhibition, hits mostly inhibitors | hit rate 0.93% among 400,000 | AID 504847; active = well fitted inhibition curve with a large enough effect; inconclusive = small, poorly fitted or top-dose-only effect, or another doubt; inactive = no such curve, though single readings can be large or run the other way; also: series mostly up to about 120 µM
Target sequence (P11473 whole entry, looked up): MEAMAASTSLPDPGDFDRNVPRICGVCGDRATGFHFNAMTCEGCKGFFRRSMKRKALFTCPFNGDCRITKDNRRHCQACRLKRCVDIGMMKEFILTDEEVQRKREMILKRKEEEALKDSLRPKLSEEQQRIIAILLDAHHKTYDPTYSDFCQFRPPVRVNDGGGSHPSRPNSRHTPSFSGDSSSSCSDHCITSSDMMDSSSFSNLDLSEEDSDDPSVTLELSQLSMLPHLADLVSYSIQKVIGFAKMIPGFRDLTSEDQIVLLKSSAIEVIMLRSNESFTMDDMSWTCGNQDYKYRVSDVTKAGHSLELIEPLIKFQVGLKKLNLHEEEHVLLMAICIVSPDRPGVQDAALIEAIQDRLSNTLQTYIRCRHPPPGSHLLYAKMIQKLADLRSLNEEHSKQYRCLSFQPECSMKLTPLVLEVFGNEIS
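Measured by FP: displacement of SRC2-3 coactivator peptide from VDR by library compounds, following a two-hour ambient incubation.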
* marks the source's active call; other numbers are inactive results; ? = inconclusive; & = joins results of further samples. % is scaled to controls: 0 for no effect and ±100 for the full control effect; potency is read from the fitted curve at half-maximal effect. Some of the compounds tested; count on the stated rates, not on these rows.

SMILES	VDR inh
Cn1c(CC(=O)Nc2cccc(Cl)c2Cl)nnc1SCC(=O)NC1=NCCS1	-5%
CC1CCC(NC(=O)Cn2c3c(c(-c4ccccc4Cl)cc2=O)CCC3)CC1 (centres undefined)	-8%
Cc1cc(OCC(=O)NC2CC(C)(C)NC(C)(C)C2)c2c(C)cc(=O)oc2c1	-10%
O=C(OCc1nnc(-c2cccs2)o1)c1cccnc1Cl	-17%
COc1c(C)cc(C(=O)C2CCCN(C(=O)c3csc(C)n3)C2)cc1C (centres undefined)	7%
COC(=O)CC1C(=O)NCCN1C(=O)c1ccc2oc(C(C)C)nc2c1 (centres undefined)	?
CC(C)CC(=O)Nc1c(C(=O)N2CCN(c3ccccc3F)CC2)oc2ccccc12	6%
CCN(CCO)C(=O)CC1C(=O)NCCN1Cc1c(F)cccc1Cl (centres undefined)	-18%
O=C(C(=O)N1CCCCC1)c1cn(CC(=O)N2CCCCCC2)c2ccccc12	-1%
CCOc1ccc(-c2nc(CSCC(=O)NCc3ccc(C)cc3)c(C)o2)cc1	-1%
C=CCNC(=O)c1c(Cl)cccc1Cl	6%
COC(=O)COc1ccc(Cl)cc1C1Nc2ccccc2C(=O)N1c1ccc(OC)cc1 (centres undefined)	0%

Exported as labelled records: part of the list above
CCOc1ccc(-c2nc(CSCC(=O)NCc3ccc(C)cc3)c(C)o2)cc1
- VDR inh = -1%
C=CCNC(=O)c1c(Cl)cccc1Cl
- VDR inh = 6%
COC(=O)COc1ccc(Cl)cc1C1Nc2ccccc2C(=O)N1c1ccc(OC)cc1 (centres undefined)
- VDR inh = 0%

Three entries out of the list above, arranged by the number in VDR inh, descending.
SMILES	VDR inh
CCOc1ccc(-c2nc(CSCC(=O)NCc3ccc(C)cc3)c(C)o2)cc1	-1%
Cn1c(CC(=O)Nc2cccc(Cl)c2Cl)nnc1SCC(=O)NC1=NCCS1	-5%
CC1CCC(NC(=O)Cn2c3c(c(-c4ccccc4Cl)cc2=O)CCC3)CC1 (centres undefined)	-8%

Additional structures:
SMILES	VDR inh
O=C(O)c1cn(Cc2ccccc2Cl)c2ccc(S(=O)(=O)N3CCOCC3)cc2c1=O	-24%
CCN(CC)S(=O)(=O)c1ccc(C(=O)NC(=S)N(CCO)Cc2ccccc2)cc1	-3%
CCCCNc1nc2c(c(=O)n(C)c(=O)n2C)n1CCC	-9%
CC(CCc1ccco1)NC(=O)Nc1cccc(F)c1 (centres undefined)	-5%
N#CCCn1c(=O)c(-c2ccc(Cl)cc2)nc2cnc(N3CCNCC3)nc21	-2%
O=C(Nc1cccc2ncccc12)c1ccc(OCc2ccccc2)cc1	-7%
CC1CN(CC(=O)Nc2nc3ccccc3s2)CC(C)O1 (centres undefined)	-12%
CCCOc1ccc(/C=C/C(=O)NC2CCCCC2)cc1OC	0%
CC(C)COc1ccc(C(=O)Nc2ccc([N+](=O)[O-])cc2)cc1	-15%
Cc1cc(C)cc(C(=O)N(c2ccccn2)C(C)c2ccco2)c1 (centres undefined)	-12%
Cc1ccc(NC(=O)CN(C)C(=O)Cn2cc(C(F)(F)F)cc(Cl)c2=O)cc1	-5%
COc1ccc(C2C(=O)c3ccccc3C2=Nc2ccc(Br)cc2)cc1 (centres undefined)	-24%

In a second layout: entries from further up
> CC(C)COc1ccc(C(=O)Nc2ccc([N+](=O)[O-])cc2)cc1
- VDR inh = -15%

> Cc1cc(C)cc(C(=O)N(c2ccccn2)C(C)c2ccco2)c1 (centres undefined)
- VDR inh = -12%

> Cc1ccc(NC(=O)CN(C)C(=O)Cn2cc(C(F)(F)F)cc(Cl)c2=O)cc1
- VDR inh = -5%

> COc1ccc(C2C(=O)c3ccccc3C2=Nc2ccc(Br)cc2)cc1 (centres undefined)
- VDR inh = -24%

Next section.
SMILES	VDR inh
Cc1nnc(-c2cnn(C)c2N)n1Cc1ccc(Cl)cc1	-4%
COC(=O)CCC(=O)OC1(C)C(=O)C2=CN(CCCOC(C)C)C(c3ccc(OC)cc3)=CC2=C(Br)C1=O (centres undefined)	?
CCN1CCN(CCCNC(=O)Cn2c(-c3cccs3)cc3ccccc32)CC1	15%
COc1ccc(OC)c(NC(=O)CC2(CC(=O)O)CCCC2)c1	1%
CCCCn1c(N)c(N(CC(C)C)C(=O)c2oc3ccc(OCC)cc3c2C)c(=O)[nH]c1=O	9%
Cc1cc(-c2nn(C)c(=O)c3ccccc23)cc(C)c1O	-25%
C=CCn1c(SCC(=O)NC2CCCCC2)nnc1C1CCCCC1	12%
O=C(NCc1ccco1)[C@@H]1CCCN1C(=O)c1cccs1	-3%
Cc1cc(C)c2[nH]c(=O)c(CN(Cc3cccs3)C(=S)NCc3ccco3)cc2c1	-22%
CN1CCN(CC#CCn2c3ccccc3c3ccccc32)CC1	3%
CC(=O)N1Cc2ccccc2CC1C(=O)N1CCN(c2ccccc2)CC1 (centres undefined)	?
Oc1ccc(/C=N/NC(=S)Nc2cccnc2)cc1	8%

2 entries picked at random from the list so far, as already listed:
SMILES	VDR inh
CC(=O)N1Cc2ccccc2CC1C(=O)N1CCN(c2ccccc2)CC1 (centres undefined)	?
COc1ccc(OC)c(NC(=O)CC2(CC(=O)O)CCCC2)c1	1%

(continued)
SMILES	VDR inh
COC(=O)c1ccccc1NC(=O)NCCc1ccccc1OC	3%
COc1ccc(OC)c(-c2cc(C3CCN(c4ncccc4[N+](=O)[O-])CC3)[nH]n2)c1	-4%
COc1ccc(C(NC(=O)c2ccco2)c2ccc(OC)c(OC)c2)cc1 (centres undefined)	11%
O=C(O)c1cc(S(=O)(=O)N2CCCCCC2)c(Cl)cc1Cl	13%
CCC1(c2ccc(Cl)cc2)NC(=O)N(CC(=O)NC2CCCCCC2)C1=O (centres undefined)	-16%
NC(=S)N/N=C/c1ccc2c(c1)OCCO2	-8%
Cc1cccc(C(=O)NC2CCN(C(=S)NCc3ccco3)CC2)c1	-16%
CSc1ccccc1NC(=O)CN(C)C(=O)C1CCN(C(=O)Nc2ccccc2)CC1	13%
COc1ccc(C(=O)N2CCOC2CNC(=O)C(=O)NCc2ccc3c(c2)OCO3)cc1 (centres undefined)	-8%
NNc1nc2ccc(F)cc2s1	?
O=C(O)CCC(=O)OCCN(Cc1ccc(Oc2ccc([N+](=O)[O-])cc2)cc1)C(=O)C(Cl)Cl	-16%
CCCC(=Nc1ccccc1)C1=C(O)C(C(=O)OC)C(C)(C)CC1=O (centres undefined)	-7%
CCc1nc2nc(C)c(NS(=O)(=O)c3ccc(C4CCCCC4)cc3)c(=O)n2[nH]1	11%
Cc1ccc(C(=O)Nc2c(-c3ccccc3)nc3ccccn23)cc1	-13%
O=C(Nc1ccc(N2CCOCC2)cc1)c1cc(-c2ccncc2)nc2ccccc12	-2%
Cc1nn(CC#N)c(=O)n1-c1ccccc1	8%
CCOC(=O)c1c(N)sc2c1CCCC2	-25%
Cc1nc(NS(=O)(=O)c2ccccc2)sc1C(=O)NN	9%
COc1ccc(OC)c(S(=O)(=O)N2CCc3ccccc32)c1	2%
CCCCCOC(=O)Nc1nc(=O)n(C2O[C@H](C)[C@@H](O)[C@@H]2O)cc1F (some centres undefined)	-2%
O=C(CCC1CCCC1)NNC(=O)c1ccc(F)cc1	-18%
O=C(NCCS(=O)(=O)N1CCN(Cc2ccccc2)CC1)c1ccc(F)cc1	-14%
CCCCn1c(N)c(N(CCC(C)C)C(=O)c2c(C)noc2C)c(=O)[nH]c1=O	-2%
COc1ccc2c(CC(=O)Nc3nccs3)coc2c1	-1%
CCOC(=O)C(C)Sc1nnc2ccc3ccccc3n12 (centres undefined)	6%
COc1ccc(S(=O)(=O)N2CCCC(C(=O)NCc3cccnc3)C2)cc1 (centres undefined)	-5%
C#Cc1cccc(N2C(=O)C3C4C=CC(C3C2=O)C2C(=O)N(c3cccc(C#C)c3)C(=O)C42)c1 (centres undefined)	-21%
Cc1ccc(Cl)cc1N1CCN(C(=O)c2ccc3nc[nH]c3c2)CC1	-11%
COc1ccccc1NC(=O)COc1ccc2ccccc2c1	9%
O=C(Nc1cccc(-c2nc3ccccc3s2)c1)c1ccc2c(c1)OCO2	9%
Cc1nnc(SCc2nnc(-c3cccs3)o2)s1	7%
Cc1cc2cc(C)c(NCCNC(=O)c3ccccc3F)nc2cc1C	-9%
CCOCCCNC(=S)Nc1cc(C)cc(C)c1	-14%
N#Cc1ccc(C(=O)OCC(=O)N2CCOCC2)cc1	-10%
COc1cc(Cc2ccc(N)c(OC)c2)ccc1N	24%
CC(=O)OCC1=C(C(=O)O)N2C(=O)C(NC(=O)CCn3nc(C)c(Cl)c3C)C2SC1 (centres undefined)	-13%
Cn1c(CN2CCCCC2)nc2cc([N+](=O)[O-])ccc21	-18%
CO/N=C(/COc1ccc(F)cc1)c1ccc(OC)cc1	2%
NS(=O)(=O)c1cccc(NC(=O)CCSc2ccc(Cl)cc2)c1	?
CCN(C[C@H]1N[C@@](CC)(C(=O)OC)[C@H]2C(=O)N(Cc3ccccc3)C(=O)[C@@H]12)S(=O)(=O)c1ccc(C(F)(F)F)cc1	17%
O=C(OCC1OC2C(Oc3nc(=O)ccn32)C1O)c1ccccc1 (centres undefined)	2%
N/C(=N\OC(=O)Cc1cccs1)c1ccccc1	10%
O=C1OCCN1S(=O)(=O)Nc1ccccc1	-13%
Cc1ccc(NC(=O)c2ccc(Br)o2)c([N+](=O)[O-])c1	1%
O=C(NNC(=O)c1ccco1)c1cccc(Br)c1	0%
CC(=O)OCC1OC(OCc2cn(C[C@H]3CC[C@@H]([C@@H]4CC[C@H](Cn5cc(COC6OC(COC(C)=O)C(OC(C)=O)C(OC(C)=O)C6OC(C)=O)nn5)O4)O3)nn2)C(OC(C)=O)C(OC(C)=O)C1OC(C)=O (some centres undefined)	-3%
O=C(NCc1ccc(Cl)cc1)C1CCC(CNc2c(N3CCOCC3)c(=O)c2=O)CC1 (centres undefined)	-26%
COC(=O)CNC(=O)c1ccc2c(c1)S(=O)(=O)c1ccccc1C2=O	-2%
COc1ccc(O)c(/C=N/n2c(-c3ccco3)csc2=Nc2cccnc2)c1	-19%
Cc1ccc(Cl)cc1NC(=O)CSc1nc2ccccc2c2nc(-c3ccccc3)nn12	0%
COc1ccc(N2CCN(C(=O)COCc3cc(-c4ccc5c(c4)OCO5)on3)CC2)cc1	-9%&16%
CCCN(CCC)CC(O)CN1C(=O)NC(C)(C)C1=O (centres undefined)	-3%
CCCCn1nc(C(=O)N(C)C2CCCCC2)c2ccccc2c1=O	11%
Cc1ccc(S(=O)(=O)N2[C@@H](c3ccc(F)cc3)C(C(=O)O)=C[C@H]2CC2CCCC2)cc1	?
N#C/C(=C(/O)CN1CCCC1)c1nc(-c2ccccc2)cs1	5%
CCc1ccc(-c2cc(C(=O)N/N=C/c3c[nH]c4ccccc34)[nH]n2)cc1	-13%
N#CCSc1nc(-c2ccccc2)nc2ccc(F)cc12	-5%
CC(C)(C)Nc1nc(NC(C)(C)C)nc(-n2ccnc2)n1	-2%
Cc1cccc(NC(=O)CSc2nnc(-c3cc(C)n(-c4ccccc4)c3C)o2)c1C	10%
CCn1c2ccccc2c2cc(NC(=O)COC(=O)c3cccc(S(=O)(=O)NC)c3)ccc21	-17%

More structures follow:
SMILES	VDR inh
c1ccc2[nH]c(CN3CCN(c4ncnc5c4oc4ccccc45)CC3)nc2c1	-7%
NC(=O)C1CC(=O)N(c2ccc(OCc3ccc(Cl)cc3)cc2)C1 (centres undefined)	?
CC(C(=O)N1CCc2ccccc21)N1CCN(S(=O)(=O)c2ccc(C(F)(F)F)cc2)CC1 (centres undefined)	-1%
N#CCc1ccc(NS(=O)(=O)c2ccc(C3CCCCC3)cc2)cc1	-2%
Cn1c(=O)c2[nH]c(-c3ccccc3Cl)c(O)c2n(C)c1=O	-3%
CC(=O)Nc1ccc2c(c1)nc(CCN1CCC(C)CC1)n2C	12%
Cc1ccc(CSCC(=O)Nc2ccccc2C(=O)O)cc1	7%
CCOC(=O)c1c(C)oc2ncnc(N3CCN(c4ccccc4F)CC3)c12	5%
O=C(N/N=C/c1cc2c(cc1Br)OCO2)c1c[nH]c2ccccc12	-21%
C=C1CCC[C@]2(C)C[C@H]3OC(=O)C(CN[C@@H](C)c4ccccc4)[C@H]3CC12 (some centres undefined)	6%
Cc1ccc(CNC(=O)Cn2ncc3c([nH]c4ccc(C)cc43)c2=O)cc1	7%
COCO/C=C(\NC(C)=O)c1ccccc1	2%
COc1ccc(CCNC(=O)Cc2ccc(NC3=NC4CS(=O)(=O)CC4S3)cc2)c(OC)c1 (centres undefined)	-17%
CCC(=O)c1ccc(OCC(=O)NNC(=O)c2cc(C)oc2C)cc1	10%
C/C(N)=C(/C#N)C(=O)COC(=O)CCC1CCCC1	-3%
O=C(NCCc1ccccc1)c1ccc(Cn2c(SCc3ccccc3F)nc3cccnc32)cc1	0%
CCCCn1c(-c2ccccc2)nnc1-c1ccccc1	-6%
NC1=NC(=O)C(CC(=O)c2ccc(Cl)cc2)S1 (centres undefined)	-17%
Cc1ccc(C)c(OC(=O)c2cccnc2)c1	-12%
O=S(=O)(c1ccc(-c2cc(C(F)(F)F)on2)s1)N1CCCC1	-9%
COCCNC(=O)CCc1nnc(Cc2ccc(-c3ccccc3)cc2)o1	-5%
O=C(Nc1nc2ccc(Br)cc2s1)c1ccco1	-15%
CN(c1ccccc1)S(=O)(=O)c1ccc(NC(=O)CC(=O)c2ccccc2)cc1	3%
